FGF22 binding: binders of human FGF22 protein, primary screen, FGF22 synaptogenesis inhibitor project, biophysical, thermal shift, single point | actives 1.5% (n = 340,000) | calls only at 9.99 µM | Fibroblast growth factor 22 (Homo sapiens), Q9HCT0 | recombinant FGF22 thermal shift, SYPRO orange fluorescence; percent of sucrose octasulfate shift, DMSO zero;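 active means melting point raised past a set limit in the mean and every replicate; three in four hits are not shown here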
Target sequence (Q9HCT0 whole entry, looked up): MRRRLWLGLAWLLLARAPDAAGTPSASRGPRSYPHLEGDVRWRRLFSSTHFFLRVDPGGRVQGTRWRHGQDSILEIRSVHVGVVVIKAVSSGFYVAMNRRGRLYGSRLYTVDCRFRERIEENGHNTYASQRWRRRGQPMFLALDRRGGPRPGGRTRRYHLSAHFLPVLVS
Ecoli rRNA inh: reduced GFP signal of wild-type E. coli, primary screen, bacterial rRNA inhibitor project, GFP/RFP fluorescence, OD600, single point. E. coli WT GFP vs humanized-ribosome RFP mutants, 24 h; active compounds read low; DMSO median 0, no signal -100. GFP signal change (wild-type ribosome), % (no concentration beside the values). actives 1.6% (n = 350,000). AID 720706, 2013;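 active means significant combined selectivity score with lowered wild-type GFP, culture density cut under 30%, mutant RFP and density less affected; inactive means any of these conditions unmet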; further: one replicate is shown; some compounds called inactive have numbers as strong as hits
Ecoli rRNA inh OD600: recorded beside Ecoli rRNA inh, whose call it bears; OD600 change, %; measured here: OD600 growth;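 optical density of the mix in the first replicate; 0 = DMSO median and -100 = no signal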
Ecoli rRNA inh RFP: also measured in Ecoli rRNA inh; calls as there; RFP signal change, %; measured here: RFP humanized mutant strains;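 first replicate; 0 = DMSO median and -100 = no signal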
* = called active by the depositor; i = inactive; . = not tested or not shown; & = joins results of further samples; ! = not active in a repeat. A portion of the library. The share of hits here may be higher or lower than overall.

1. CN(C)C(=O)C[C@H]1CC[C@H]2[C@@H](COC[C@@H](O)CN2Cc2ccc(C(F)(F)F)cc2)O1
2. O=C(c1ccc2c(c1)OCO2)N1CC[C@@H]2[C@H](CO)Nc3ccc(C#Cc4ccccc4)cc3[C@@H]21
3. CN(C)C(=O)c1cccc(-c2ccc(C3[C@H]4CNC[C@@H]3N4S(=O)(=O)c3ccccc3F)cc2)c1 (stereo partly specified)
4. CN1C(=O)c2cc(NC(=O)c3cccs3)ccc2OC[C@@H]2O[C@@H](CC(=O)NCC3CC3)CC[C@H]21
5. C[C@H]1CN([C@@H](C)CO)S(=O)(=O)c2ccc(/C=C/c3ccccc3)cc2O[C@H]1CN(C)C(=O)c1ccccc1
6. C[C@@H]1CCCCO[C@@H](CN(C)S(=O)(=O)c2ccc(Cl)cc2)[C@H](C)CN([C@@H](C)CO)C(=O)c2cc(NC(=O)Nc3ccc(C(F)(F)F)cc3)ccc2O1
7. C[C@H]1CN([C@@H](C)CO)C(=O)c2cccc(NS(=O)(=O)c3ccccc3)c2O[C@@H]1CN(C)S(=O)(=O)c1ccc(F)cc1
8. Cc1noc(C)c1NC(=O)Nc1ccc2c(c1)CC(=O)N([C@@H](C)CO)C[C@@H](C)[C@@H](CN(C)Cc1ccc(Oc3ccccc3)cc1)O2
assay / entry	1	2	3	4	5	6	7	8
FGF22 binding	i	i	i	i	i	i	i	i
Ecoli rRNA inh	1	-11	-22*!	-3	-2	6	-5	-9
Ecoli rRNA inh OD600	-7	-3	-10*!	-3	9	12	-1	-29
Ecoli rRNA inh RFP	-2.5	-2.2	1.2*!	-0.6	2.4	-2.4	1.6	6.0

9. COc1ccc2c3c(n(C)c2c1)[C@H](CO)N(C(=O)Nc1ccc(F)cc1)CC31CCN(C(=O)c2cccnc2)CC1
10. COc1ccc(S(=O)(=O)Nc2cccc3c2O[C@@H](CN(C)S(=O)(=O)c2ccccc2)[C@@H](C)CN([C@@H](C)CO)C3=O)cc1
11. COc1ccc(NC(=O)Nc2ccc3c(c2)C(=O)N([C@@H](C)CO)C[C@@H](C)[C@H](CN(C)S(=O)(=O)c2c(C)noc2C)OCCCC[C@H](C)O3)cc1
12. COCCNC(=O)C[C@@H]1C[C@H]2c3cc(NS(=O)(=O)c4ccc(F)cc4)ccc3O[C@H]2[C@@H](CO)O1
13. C[C@@H]1CCCCO[C@H](CN(C)CC2CCCCC2)[C@@H](C)CN([C@H](C)CO)C(=O)c2cc(NC(=O)CCC(F)(F)F)ccc2O1
14. C[C@@H]1CN([C@H](C)CO)C(=O)c2cc(NC(=O)Cc3ccccc3)ccc2O[C@@H](C)CCCCO[C@@H]1CN(C)S(=O)(=O)c1cn(C)cn1
15. COc1ccc(S(=O)(=O)Nc2ccc3c(c2)C(=O)N([C@@H](C)CO)C[C@H](C)[C@@H](CN(C)Cc2ccc(Cl)c(Cl)c2)OCCCC[C@H](C)O3)cc1
16. COc1ccc(NC(=O)N(C)C[C@@H]2Oc3ccc(NS(=O)(=O)c4cccs4)cc3CC(=O)N([C@@H](C)CO)C[C@H]2C)cc1
assay / entry	9	10	11	12	13	14	15	16
FGF22 binding	i	i	i	i	i	i	i	i
Ecoli rRNA inh	-4	3	-3	-1	1	-1	2	2
Ecoli rRNA inh OD600	-3	3	-1	1	8	-1	-6	3
Ecoli rRNA inh RFP	0.7	0.1	-0.9	0.1	-0.8	-1.5	11	-0.8

17. C[C@H](CO)N1C[C@H](C)[C@@H](CN(C)C(=O)Nc2ccc(C(F)(F)F)cc2)Oc2ccc(NC(=O)Nc3ccc(F)cc3)cc2CC1=O
18. CS(=O)(=O)Nc1ccc2c(c1)[C@@H]1C[C@H](CC(=O)NCc3ccc(-c4ccccc4)cc3)O[C@H](CO)[C@@H]1O2
19. C[C@H]1CN([C@@H](C)CO)C(=O)Cc2cc(NC(=O)Nc3ccc4c(c3)OCO4)ccc2O[C@H]1CN(C)S(=O)(=O)c1cn(C)cn1
20. Nc1nc2cc3c(cc2cc1C(=O)NCCc1c[nH]c2ccccc12)OCO3
21. C[C@H](O)[C@@H]1C(=O)N2CCc3c([nH]c4c(-c5ccc6c(c5)OCO6)cccc34)[C@@H]2C[C@@H]1N(C)C(=O)c1ccco1
22. COc1ccc(CN(C)C[C@@H]2OCCCC[C@@H](C)Oc3ccc(NC(=O)Cc4ccccc4)cc3C(=O)N([C@H](C)CO)C[C@@H]2C)cc1
23. COCCNC(=O)C[C@H]1C[C@@H]2c3cc(NC(=O)Nc4ccccc4F)ccc3O[C@@H]2[C@@H](CO)O1
24. C[C@@H]1CN([C@H](C)CO)C(=O)Cc2cc(NC(=O)Nc3ccc4c(c3)OCO4)ccc2O[C@H]1CN(C)C(=O)Nc1ccc(F)cc1
assay / entry	17	18	19	20	21	22	23	24
FGF22 binding	i	i	i	i	i	i	i	i
Ecoli rRNA inh	0	-6	2	-25*	-6	0	-1	0
Ecoli rRNA inh OD600	-13	-14	1	-19*	-7	-6	6	8
Ecoli rRNA inh RFP	-1.0	1.4	-0.3	-1.4*	6.0	-1.4	-0.7	-0.1

25. C[C@@H]1CCCCO[C@H](CN(C)S(=O)(=O)c2cccs2)[C@@H](C)CN([C@H](C)CO)C(=O)c2cc(NC(=O)c3ccccc3)ccc2O1
26. COC(=O)N1C[C@H](OC(=O)c2ccc(-c3ccccc3)cc2)[C@H]2C[C@@H]1c1ccccc1O2
27. COc1ccc(NC(=O)Nc2ccc3c(c2)C(=O)N([C@@H](C)CO)C[C@@H](C)[C@H](CN(C)C(=O)CCC(F)(F)F)OCCCC[C@H](C)O3)cc1
28. C[C@H](CO)N1C[C@H](C)[C@@H](CN(C)C(=O)Cc2ccccc2)OCCCC[C@H](C)Oc2ccc(NC(=O)C3CCCCC3)cc2C1=O
29. O=C(C[C@H]1CC[C@H]2NC[C@H](O)COC[C@@H]2O1)NCCc1ccncc1
30. CN1C(=O)c2cc(NS(=O)(=O)c3cccc(F)c3)ccc2OC[C@@H]2O[C@H](CC(=O)N3CCc4ccccc4C3)CC[C@@H]21
31. C[C@@H]1CN([C@H](C)CO)C(=O)c2cc(NS(=O)(=O)c3cccs3)ccc2O[C@@H](C)CCCCO[C@H]1CN(C)Cc1ccc2c(c1)OCO2
32. CCNC(=O)C[C@H]1CC[C@@H]2[C@H](COc3ccc(NC(=O)Nc4cccc(OC)c4)cc3C(=O)N2C)O1
assay / entry	25	26	27	28	29	30	31	32
FGF22 binding	i	i	i	i	i	i	i	i
Ecoli rRNA inh	1	29	-2	-6	i	1	2	1
Ecoli rRNA inh OD600	0	19	-5	-6	.	-19	-4	2
Ecoli rRNA inh RFP	-0.6	1.2	-1.1	-3.4	.	-1.3	-0.5	-0.8

A draw from above in order of length of the SMILES, descending:
30. CN1C(=O)c2cc(NS(=O)(=O)c3cccc(F)c3)ccc2OC[C@@H]2O[C@H](CC(=O)N3CCc4ccccc4C3)CC[C@@H]21
23. COCCNC(=O)C[C@H]1C[C@@H]2c3cc(NC(=O)Nc4ccccc4F)ccc3O[C@@H]2[C@@H](CO)O1
26. COC(=O)N1C[C@H](OC(=O)c2ccc(-c3ccccc3)cc2)[C@H]2C[C@@H]1c1ccccc1O2
assay / entry	30	23	26
FGF22 binding	i	i	i
Ecoli rRNA inh	1	-1	29
Ecoli rRNA inh OD600	-19	6	19
Ecoli rRNA inh RFP	-1.3	-0.7	1.2

New compounds follow:
33. COc1ccc(S(=O)(=O)Nc2ccc3c(c2)C(=O)N([C@H](C)CO)C[C@@H](C)[C@H](CN(C)Cc2ccc(Cl)c(Cl)c2)OCCCC[C@H](C)O3)cc1
34. COc1ccc(S(=O)(=O)Nc2ccc3c(c2)C(=O)N([C@@H](C)CO)C[C@H](C)[C@H](CN(C)Cc2ccccc2)OCCCC[C@H](C)O3)cc1
35. C[C@@H]1CNCCN1c1ccc(N2CCN(Cc3ccccc3)[C@@H](C)C2)c(C#N)c1
36. COc1ccc(S(=O)(=O)N(C)C[C@H]2Oc3ccc(NS(=O)(=O)c4ccc(Cl)cc4)cc3CC(=O)N([C@H](C)CO)C[C@@H]2C)cc1
37. COCC(=O)Nc1ccc2c(c1)C(=O)N(C)[C@H]1CC[C@H](CC(=O)NCc3ccccc3Cl)O[C@@H]1CO2
38. CCCC(=O)Nc1ccc2c(c1)C(=O)N(C)[C@@H]1CC[C@H](CC(=O)N3CCc4ccccc4C3)O[C@H]1CO2
39. C[C@@H]1CCCCO[C@@H](CN(C)C(=O)Nc2cccc3ccccc23)[C@H](C)CN([C@H](C)CO)C(=O)c2cc(NC(=O)CCC(F)(F)F)ccc2O1
40. C[C@@H]1CN(c2ccc(N3CCN(C(=O)OC(C)(C)C)C[C@H]3C)cc2C#N)CCN1Cc1ccccc1
assay / entry	33	34	35	36	37	38	39	40
FGF22 binding	i	i	i	i	i	i	i	i
Ecoli rRNA inh	-2	0	4	-5	-3	3	0	0
Ecoli rRNA inh OD600	-14	-12	-11	-4	-10	5	11	-12
Ecoli rRNA inh RFP	9.1	4.4	0.1	2.1	0.4	-0.7	1.7	-2.5

41. C(=C\c1ccc(C2[C@@H]3CN(Cc4cocn4)C[C@H]2N3)cc1)/c1ccccc1 (stereo partly specified)
42. O=C(N[C@H](C(=O)N1CCC[C@H]1C(=O)NCCc1ccccc1Cl)c1ccccc1)C1CCCC1
43. C[C@@H]1CN([C@@H](C)CO)C(=O)c2cc(NC(=O)Nc3ccc4c(c3)OCO4)ccc2O[C@H]1CN(C)C(=O)Nc1ccc(F)cc1
44. CN(C)C(=O)C[C@H]1C[C@H]2c3cc(NS(=O)(=O)c4ccc(F)cc4)ccc3O[C@H]2[C@@H](CO)O1
45. C[C@@H]1C=CCCO[C@]12C(=O)N(Cc1ccccc1C(F)(F)F)c1ccccc12
46. CCOC(=O)CNC(=O)N(C)[C@H]1C[C@H]2c3[nH]c4c(-c5ccc6c(c5)OCO6)cccc4c3CCN2C(=O)[C@H]1[C@H](C)O
47. Cc1cccc(-c2ccc(C3[C@@H]4CN(C(=O)C5CCCCC5)C[C@H]3N4)cc2)c1 (stereo partly specified)
48. C[C@H](CO)N1C[C@H](C)[C@@H](CN(C)Cc2ccc(C(F)(F)F)cc2)OCCCC[C@H](C)Oc2ccc(NC(=O)Nc3cccc4ccccc34)cc2C1=O
assay / entry	41	42	43	44	45	46	47	48
FGF22 binding	i	i	i	i	i	i	i	i
Ecoli rRNA inh	-8&-55	10	7	-1	-9	-14	-61&-61	1
Ecoli rRNA inh OD600	-8&-77	6	-5	2	-4	-44	-77&-69	1
Ecoli rRNA inh RFP	-7.6&-13	3.2	2.4	-1.5	-4.9	-6.2	-15&-14	-0.4

49. C[C@@H]1CN([C@H](C)CO)C(=O)c2cc(NC(=O)Nc3cccc4ccccc34)ccc2O[C@@H](C)CCCCO[C@H]1CN(C)Cc1ccc2c(c1)OCO2
50. CNC(=O)C[C@H]1CC[C@H]2[C@@H](COc3ccc(NC(=O)C4CC4)cc3C(=O)N2C)O1
51. CO[C@@H]1CN(C)C(=O)c2ccc(NC(=O)c3ccc(Oc4ccccc4)cc3)cc2OC[C@@H](C)NC[C@@H]1C
52. COc1cccc(S(=O)(=O)N2CC[C@H]3[C@@H](CO)N(C)c4ccc(C5=CCCCC5)cc4[C@H]32)c1
53. COc1cccc(NC(=O)C[C@H]2CC[C@H]3[C@@H](COc4ccc(NS(=O)(=O)c5cccc(F)c5)cc4C(=O)N3C)O2)c1
54. Cc1cc(N2CCNC[C@@H]2C)ccc1N1CCN(Cc2ccccc2)[C@@H](C)C1
55. O=C(C[C@H]1CC[C@H]2[C@@H](COC[C@@H](O)CN2C(=O)Cc2ccccc2)O1)NC1Cc2ccccc2C1
56. COc1cccc(-c2cnc3c(c2)C(=O)N([C@@H](C)CO)C[C@@H](C)[C@H](CN(C)C(=O)Nc2ccccc2F)O3)c1
assay / entry	49	50	51	52	53	54	55	56
FGF22 binding	i	i	i	i	i	i	i	i
Ecoli rRNA inh	-9	-3	-6	1	-9	30	-2	4
Ecoli rRNA inh OD600	-36	-4	-1	19	-19	31	-7	-1
Ecoli rRNA inh RFP	5.7	0.7	11	-6.0	6.8	3.1	-0.3	1.2

57. Cc1ccc(S(=O)(=O)Nc2ccc3c(c2)C(=O)N([C@@H](C)CO)C[C@H](C)[C@@H](CN(C)Cc2ccccc2)OCCCC[C@H](C)O3)cc1
58. O=C(Nc1ccc2c(c1)[C@@H]1C[C@@H](CC(=O)N3CCOCC3)O[C@@H](CO)[C@@H]1O2)c1ccc2c(c1)OCO2
59. COCC(=O)Nc1ccc2c(c1)[C@H]1C[C@@H](CC(=O)NCc3ccc(Cl)cc3)O[C@H](CO)[C@H]1O2
60. COc1ccc(CN(C)C[C@@H]2OCCCC[C@@H](C)Oc3ccc(NC(=O)Nc4ccccc4)cc3C(=O)N([C@H](C)CO)C[C@H]2C)cc1
61. COC(=O)C1=C(C)N(Cc2ccccc2C(F)(F)F)C(=NCC2CC2)NC1c1cccc(F)c1 (stereo unspecified)
assay / entry	57	58	59	60	61
FGF22 binding	i	i	i	i	i
Ecoli rRNA inh	6	1	1	-2	-43
Ecoli rRNA inh OD600	-16	6	-2	-15	-79
Ecoli rRNA inh RFP	11	-3.7	-0.8	1.1	-15

Source: PubChem (Broad Institute)
